# Screens (PubChem BioAssay)
# Vif A3G = inhibitors of Vif binding to APOBEC3G peptide, primary screen, biochemical, TR-FRET, GST-Vif 1-94, biotin-A3G peptide, dose response retest (AID 1117319) | inhibition, %; hits with a dose series show IC50 in µM | 260,000 compounds, 0.57% hits | TR-FRET GST-Vif / biotin-A3G peptide binding; higher % means a stronger effect; test concentration not given here; strong numbers were not always called active;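 active = above the screen mean plus three standard deviations and confirmed in dose response; inconclusive = results disagree or hit not tested in dose response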;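 note: Vif residues 1-94 fused to GST binding biotinylated APOBEC3G peptide 110-148; 0% = full assay without inhibitor and 100% = GST in place of GST-Vif; retest series ran down from 100 µM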
# HNF4A DNA FP = change in binding of human HNF4 alpha to DNA | P41235 | HNF4a-FITC DNA binding, fluorescence polarization, 1 h | activity change, % at 10 µM | 360,000 compounds, 0.3% hits | AID 1224865; in the data active = activity change above about 30%, passing the limit was not always enough;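 note: controls were the assay level and a saturating level of protein; the project sought stronger binding though the title names inhibitors; some compounds called inactive have numbers as strong as hits; positive values seem to mean higher polarization but the record does not say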
# FGF22 binding = shifts melting point of recombinant human FGF22 | Q9HCT0 | recombinant FGF22 thermal shift, SYPRO orange fluorescence; percent of sucrose octasulfate shift, DMSO zero | calls only at 9.99 µM | 340,000 compounds, 1.5% hits | AID 651658;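 active = melting point raised past a set limit in the mean and every replicate; inconclusive = no clear call; three in four hits are not shown here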
# E coli growth = inhibitors of Escherichia coli growth. OD600, 23 h; hits give low values. AID 1053175. OD600 absorbance (no concentration beside the values). 330,000 compounds, 0.21% hits;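 active = OD600 absorbance below the run mean of sample wells minus 3.6 SD, in any replicate, cut at about 0.56 in these data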;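 note: stock transfer was 300 nL into about 60 µL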
# UCH37 inh = blocks the human deubiquitinase UCH37; 330,000 compounds, 0.33% hits; inhibition, % (no concentration beside the values); purified proteasome/UCH37, Ub-AMC cleavage fluorescence;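 active = mean of two replicates above 20%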;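 note: 0% = compound-free wells with enzyme and 100% = wells lacking proteasome; stock transfer was 100 nL into about 20 µL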
# Target sequence (Q9Y5K5 whole entry, looked up): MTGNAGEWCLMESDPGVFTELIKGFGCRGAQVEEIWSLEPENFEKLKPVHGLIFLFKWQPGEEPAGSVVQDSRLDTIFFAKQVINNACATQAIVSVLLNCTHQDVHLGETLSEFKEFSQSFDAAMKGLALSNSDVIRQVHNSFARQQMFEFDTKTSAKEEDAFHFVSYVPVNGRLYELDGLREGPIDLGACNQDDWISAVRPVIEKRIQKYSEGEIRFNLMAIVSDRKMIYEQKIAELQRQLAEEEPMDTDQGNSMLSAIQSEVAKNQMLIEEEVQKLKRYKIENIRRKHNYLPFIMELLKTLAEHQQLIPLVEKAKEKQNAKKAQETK
#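 Material: Human UCH37 enzyme supplied as purified proteasome complex | Schedule: 30 min preincubation with enzyme, 25 min cleavage at room temperature | Detection: AMC fluorescence 355/460 nm | Measure: % inhibition of Ub-AMC cleavage fluorescence | Controls: Wells without proteasome as full block, compound-free enzyme plus substrate as uninhibited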
# MLL AF4-AF9 inh = blocks AF4 peptide binding to human AF9; AID 651704; AlphaScreen, biotin-AF4 peptide binding to FLAG-AF9; 350,000 compounds, 0.47% hits; inhibition, % at 10 µM;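 active = every replicate reaching a set inhibition limit, whatever the replicate mean, cut at about 25% in these data; inconclusive = mean inhibition reaches that limit but some replicates miss it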;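 note: 0% = plate neutral control median and 100% = total signal loss; the record names both 10 and 1 µM as test concentration; the first replicate is given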
# Target sequence (P42568 whole entry, looked up): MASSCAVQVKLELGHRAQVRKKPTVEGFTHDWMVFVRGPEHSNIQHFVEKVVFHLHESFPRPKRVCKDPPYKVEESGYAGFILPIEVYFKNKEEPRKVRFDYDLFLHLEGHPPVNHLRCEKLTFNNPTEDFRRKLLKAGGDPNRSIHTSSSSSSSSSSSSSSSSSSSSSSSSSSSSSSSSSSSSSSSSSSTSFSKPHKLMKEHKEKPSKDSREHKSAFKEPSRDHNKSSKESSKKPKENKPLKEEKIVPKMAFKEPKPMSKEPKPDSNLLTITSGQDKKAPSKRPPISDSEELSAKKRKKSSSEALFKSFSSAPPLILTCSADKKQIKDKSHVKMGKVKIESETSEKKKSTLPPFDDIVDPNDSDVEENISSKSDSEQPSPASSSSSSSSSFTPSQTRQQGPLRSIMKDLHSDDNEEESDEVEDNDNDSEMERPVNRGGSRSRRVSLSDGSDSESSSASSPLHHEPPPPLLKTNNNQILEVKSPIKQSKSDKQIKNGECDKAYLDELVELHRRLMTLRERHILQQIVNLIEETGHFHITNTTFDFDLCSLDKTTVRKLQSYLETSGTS
# RanGTP-Impb inh = disruptors of Ran-importin-beta complex formation – biochemical, FRET, CFP-Ran, YFP-importin-beta, homogeneous, primary screen; AID 2216; 300,000 compounds, 1.1% hits; inhibition, % (concentration not given with the values); cell-free CFP-Ran/YFP-importin-beta FRET ratio;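 active = most replicates above 15%; inconclusive = exactly half above 15%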;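 note: 0% = DMSO wells and 100% = Ran loaded with GDP instead of GTP; wells of about 40 µL received 100 nL stock; the first replicate is given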
# * = called active by the depositor; i = inactive; ? = inconclusive; nt = not tested or not shown. Not all compounds are listed; count on the stated rates, not on these rows.
SMILES,Vif A3G,HNF4A DNA FP,FGF22 binding,E coli growth,UCH37 inh,MLL AF4-AF9 inh,RanGTP-Impb inh
O=C(NCc1ccc2c(c1)OCO2)c1ccc(C2SCC(=O)N2Cc2ccco2)cc1 (stereo not given),-4%,-3.0,nt,0.7,4.5,nt,-3.2
COc1ccccc1N1CC(C(=O)Nc2cccc(C(=O)O)c2)CC1=O (stereo not given),-7%,-2.3,nt,0.71,-0.1,nt,?
O=C(CC(Nc1cccc(Cl)c1Cl)C(=O)OCC(=O)c1cccs1)c1ccccc1 (stereo not given),20%,1.4,nt,0.7,7.4,nt,2.0
COc1ccccc1C(=O)NCCN1CCCC1,nt,-3.3,i,nt,nt,0.3,nt
COc1ccc2c(-c3ccccc3)cc(SCC(N)=O)nc2c1,nt,43*,i,0.62,-2.2,4.9,-10
CCCn1c(SCC(=O)N2CCCc3ccccc32)nc2c1c(=O)n(C)c(=O)n2C,nt,0.1,nt,0.73,2.1,nt,nt
CCN(CC)S(=O)(=O)c1ccc(OC)c(NC(=S)Nc2cc(C)ccc2C)c1,-1%,nt,nt,0.67,4.5,nt,2.2
Cc1oc(-c2cc(Cl)cc(Cl)c2)cc1C(=O)NCCc1ccccc1,-16%,-0.3,nt,0.73,-1.7,nt,1.4
CCN1CCN(C(CNS(=O)(=O)c2ccccc2)c2cccnc2)CC1 (stereo not given),3%,1.3,i,0.68,4.2,-9.7,?
Cc1ccc(CC(NC(=O)c2ccccc2)C(=O)NC(CC(C)C)C(=O)O)cc1 (stereo not given),-6%,0.7,i,0.69,2.6,-2.8,3.1
Cc1ccccc1C(=O)N1CCCC(N2CCN(Cc3ccc4c(c3)OCO4)CC2)C1 (stereo not given),5%,-3.3,i,0.71,0.4,-1.0,1.5
COc1ccc(CC2(CO)COc3ccccc3C2=O)cc1 (stereo not given),nt,2.0,i,0.69,4.4,-2.6,0.8
CCc1c(C)sc(NC(=O)C2CC2)c1C(=O)OC(C)C,-1%,2.5,i,0.71,3.6,-3.5,-4.6
CSc1n[nH]c(-c2sccc2OCc2ccc(C)cc2)n1,16%,0.8,nt,0.71,5.4,nt,1.5
CCC1(C)Cc2c(sc3nnn(CC(=O)Nc4ccccc4)c(=O)c23)CO1 (stereo not given),0%,-0.7,i,0.71,2.9,10,5.3
CN1CCN(c2ccc(NC(=O)c3cc(Cl)c4c(c3)OCCO4)cc2)CC1,6%,1.2,i,0.66,4.3,4.7,nt
O=C(NC(=S)N(CCO)Cc1ccccc1)c1ccc(F)cc1Cl,-10%,-1.0,i,0.7,2.8,-3.4,0.3
S=C(NCCCCNC(=S)NCc1ccccc1)NCc1ccccc1,nt,0.6,i,0.64,-0.5,-2.5,3.0
Cc1nn(C)c(C)c1S(=O)(=O)N(CC(=O)NCc1cccs1)c1ccc(C(C)C)cc1,?,3.3,i,0.74,2.6,-1.8,nt
CCc1ccc(NC(=O)C(=O)NCCN2CCN(C(=O)c3ccco3)CC2)cc1,6%,4.0,nt,0.75,-1.2,nt,0.6
O=C(Nc1sc2c(c1C(=O)NCc1cccnc1)CCCC2)c1ccco1,2%,5.0,nt,0.68,-30,nt,3.8
CCCCc1ccc(NC(=S)N2CCCC(CO)C2)cc1 (stereo not given),?,4.0,nt,0.68,2.7,nt,-5.7
CCN(CC)S(=O)(=O)c1cc(NC(=O)C(C)N2CCN(Cc3ccc4c(c3)OCO4)CC2)ccc1C (stereo not given),0%,0.5,i,0.67,1.0,13,0.7
CN1CCN(/C=C2\SC(=S)NC2=O)CC1,8%,-0.1,nt,nt,5.4,nt,1.6
Cc1ccc(N=Nc2c(C)[nH]n(-c3ccccc3)c2=O)cc1Br,nt,0.3,i,0.7,4.9,3.3,1.5
Cc1n[nH]c(=S)n(/N=C/c2cccs2)c1=O,-2%,-0.2,nt,nt,nt,-4.3,-2.3
CC1CC(C)(C)NC(=S)N1CC(=O)N1CCN(Cc2ccc3c(c2)OCO3)CC1 (stereo not given),-1%,-0.2,i,0.7,4.1,-1.2,-2.5
CCCC(=O)Nc1ccc(C(=O)NCC(=O)OCC)cc1,31%,-0.2,nt,0.69,5.7,nt,-0.1
Oc1ccccc1CN1CCC(C(O)(c2ccccc2)c2ccccc2)CC1,nt,3.5,i,0.71,3.3,5.5,-1.5
CCCC(C(=O)NCc1ccco1)N(CC1CCCO1)C(=O)CNS(=O)(=O)c1ccc(F)cc1 (stereo not given),nt,3.3,i,0.69,-0.7,-5.5,3.8
CC(=O)c1sc(NC(=O)c2ccc(C)cc2)nc1C,-8%,-0.5,nt,0.78,-1.4,nt,0.1
COc1cc(/C=C/c2noc(-c3ccccc3O)n2)ccc1OC(C)=O,-4%,1.2,i,0.7,-0.5,2.4,-5.6
NC(=O)c1cccnc1Oc1ccccc1,4%,4.2,i,0.68,3.9,-0.4,0.5
O=C(OC1CCOC1=O)c1ccccc1C(=O)c1ccc(Cl)c([N+](=O)[O-])c1 (stereo not given),-1%,-5.2,nt,0.65,2.3,nt,nt
COc1ccc(CNCCS(=O)(=O)NC2CCCC2)cc1,nt,-0.5,i,0.72,4.8,-0.6,nt
COc1ccc(C2C(=O)N(C3CCCCC3)CC(=O)N2C2CCCC2)cc1 (stereo not given),-2%,-0.7,nt,0.66,1.9,nt,-1.3
CCOC(=O)c1c(C)[nH]c(C(=O)OCC(=O)NCc2ccccc2)c1C,nt,-1.4,i,0.71,-0.9,0.6,nt
CCOc1ccc(-n2c(C)nnc2SCC(=O)N(CC)CC)cc1,-3%,-3.3,nt,0.72,2.1,nt,-3.7
Cn1c(=O)c2[nH]c(SCc3cccnc3)nc2n(C)c1=S,-6%,0.0,i,0.64,1.7,4.0,nt
C/C(=N\NC(=O)CN(c1ccccc1)S(C)(=O)=O)c1ccccc1O,-2%,4.7,nt,nt,nt,1.3,-3.3
O=S(=O)(Cc1cc(Cl)nc(-c2cccnc2)n1)c1ccccc1,10%,2.4,nt,0.68,1.9,nt,1.9
N#Cc1cc(C(=O)c2ccccc2O)cn(-c2ccc(Cl)cc2)c1=O,nt,14,i,nt,nt,3.7,?
COc1ccccc1C(=O)Nc1nnc(S(=O)(=O)N2CCN(c3ccc(F)cc3)CC2)s1,nt,1.1,i,0.65,1.3,0.6,-1.6
CC(C)c1ccc(S(=O)(=O)N2CCC(C(=O)NCC3(N(C)C)CCCCC3)CC2)cc1,nt,2.5,i,0.68,4.9,2.1,0.1
COc1cc(/C=N/NC(=O)c2cc(-c3ccccc3OC(C)C)nc3ccccc23)ccc1O,2%,0.8,nt,nt,nt,nt,0.3
COc1ccc(C(=O)N[C@H](C(=O)NCc2ccc(C)cc2)C(C)C)cc1,nt,-0.7,i,0.71,0.0,-7.3,2.8
COc1ccccc1CCC(=O)Oc1ccc(C#N)cc1OC,3%,12,i,0.65,1.1,-0.7,-4.9
CCOc1ccc(N(CC(=O)NCCSCc2ccccc2Cl)S(C)(=O)=O)cc1,nt,4.2,i,0.7,4.3,-9.3,1.5
COc1c(Cl)ccc(Cl)c1C(=O)OCC(=O)O,-11%,-2.3,i,0.72,1.0,-25,3.1
Cc1nc(Cl)cc(N/N=C/c2ccccc2)n1,nt,-1.4,i,nt,nt,7.5,0.3
O=C(COC(=O)C1CCC(=O)N1)Nc1cc(Cl)ccc1Cl (stereo not given),10%,3.1,i,0.73,1.7,-0.5,2.3
O=C(CCN1C(=O)c2ccccc2S1(=O)=O)Nc1ccc(C(=O)O)cc1,nt,-0.9,i,0.71,-0.5,1.7,1.2
O=C(Nc1ccccc1N1CCOCC1)c1ccc2ccccc2c1,1%,1.1,i,0.66,1.8,-5.8,1.9
O=C1C=C(O)C(n2cncn2)C(c2cc(F)ccc2F)C1 (stereo not given),1%,6.8,i,0.72,3.9,3.1,-4.3
Cc1cccc(NC(=O)CN(C)C(=O)/C=C/c2ccccc2)c1C,4%,-0.8,nt,0.6,1.7,-0.5,nt
Cc1cccc(NCc2ccccc2)c1,-6%,-5.6,i,0.69,-3.4,1.4,-1.9
O=C(NC(=S)Nc1ccccc1C(=O)O)c1ccc(-c2ccc(Br)cc2)o1,nt,-0.2,i,nt,nt,-1.3,7.5
CCOc1ccccc1N1CCN(S(=O)(=O)c2ccc(F)c(F)c2)CC1,1%,0.1,nt,0.72,3.6,nt,1.2
O=C(Nc1ccc(NC(=O)C2CC2)nc1)c1cccc(F)c1,25%,-1.0,nt,0.64,2.6,nt,-0.9
Cn1cncc1C#Cc1ccc(N2C(c3ccsc3)=Cc3ccc(F)cc3C2c2c[nH]c3ccccc23)cc1 (stereo not given),nt,9.1,i,nt,nt,2.2,nt
# (list continues)
SMILES,Vif A3G,HNF4A DNA FP,FGF22 binding,E coli growth,UCH37 inh,MLL AF4-AF9 inh,RanGTP-Impb inh
COc1ccc(OCc2nnc(SCC(=O)NC3CC3)n2C)cc1,9%,-0.3,i,0.68,0.7,0.4,-0.2
CCC(=O)N1CCc2cc(Br)cc(S(=O)(=O)NCc3ccco3)c21,0%,-1.0,nt,0.68,4.4,nt,0.0
CO/N=C/NC(=O)Cc1cn(-c2ncc(C(F)(F)F)cc2Cl)c2ccccc12,8%,1.3,nt,nt,nt,nt,5.5
CC1CCCCC1NC(=O)C(C)N1C(=O)c2ccccc2C1=O (stereo not given),3%,2.2,i,0.66,3.6,-4.3,nt
COc1cccc(C=NCC(C)N=Cc2cccc(OC)c2O)c1O (stereo not given),1%,-1.7,i,0.65,5.6,-5.4,1.0
Cc1csc(NC(=O)C2CC(=O)N(Cc3ccco3)C2)n1 (stereo not given),nt,0.5,i,0.74,4.3,-4.3,-0.6
NS(=O)(=O)c1cccc(NC(=O)CCCC2CCCCC2)c1,-2%,1.4,i,0.7,3.8,0.1,-1.2

# Gathered by group: the entries above with a furan ring, fused or not (8)
SMILES,Vif A3G,HNF4A DNA FP,FGF22 binding,E coli growth,UCH37 inh,MLL AF4-AF9 inh,RanGTP-Impb inh
O=C(NCc1ccc2c(c1)OCO2)c1ccc(C2SCC(=O)N2Cc2ccco2)cc1 (stereo not given),-4%,-3.0,nt,0.7,4.5,nt,-3.2
Cc1oc(-c2cc(Cl)cc(Cl)c2)cc1C(=O)NCCc1ccccc1,-16%,-0.3,nt,0.73,-1.7,nt,1.4
CCc1ccc(NC(=O)C(=O)NCCN2CCN(C(=O)c3ccco3)CC2)cc1,6%,4.0,nt,0.75,-1.2,nt,0.6
O=C(Nc1sc2c(c1C(=O)NCc1cccnc1)CCCC2)c1ccco1,2%,5.0,nt,0.68,-30,nt,3.8
CCCC(C(=O)NCc1ccco1)N(CC1CCCO1)C(=O)CNS(=O)(=O)c1ccc(F)cc1 (stereo not given),nt,3.3,i,0.69,-0.7,-5.5,3.8
O=C(NC(=S)Nc1ccccc1C(=O)O)c1ccc(-c2ccc(Br)cc2)o1,nt,-0.2,i,nt,nt,-1.3,7.5
CCC(=O)N1CCc2cc(Br)cc(S(=O)(=O)NCc3ccco3)c21,0%,-1.0,nt,0.68,4.4,nt,0.0
Cc1csc(NC(=O)C2CC(=O)N(Cc3ccco3)C2)n1 (stereo not given),nt,0.5,i,0.74,4.3,-4.3,-0.6
